Screens as filed in PubChem BioAssay.
Measles inh = inhibitors of measles virus growth in infected cells; 33,000 tested, 0.1% active; z-score (test concentration not listed); infected Vero cells, GFP fluorescence, 64 h; stronger effect = lower value; AID 745;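 active = z-score under -3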;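 also: score is relative to mean and SD of the compound wells of a plate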
The depositor's hits bear a star.

Measles inh | Compound
0.84 | CCOC(=O)c1ccc(-n2c(CN3CCOCC3)nc3ccc([N+](=O)[O-])cc3c2=O)cc1
-0.34 | Cc1ccc(-n2nc3ccc(NC(=O)COc4ccccc4C)cc3n2)cc1
-1.3 | COc1ccc(-c2cc(C(F)(F)F)n3ncc(C(=O)Nc4cccc(Cl)c4C)c3n2)cc1OC
-0.92 | Cc1cc(=O)[nH]c(SCC(=O)Nc2nc(-c3ccc(Br)cc3)cs2)n1
-1.3 | Cc1nn(-c2ccccc2)c(OC(=O)c2ccc(F)cc2)c1S(=O)(=O)c1ccccc1
0.91 | Cc1cocc1C(=O)N1N=C(c2ccccc2)CC1(O)C(F)(F)F (stereo unspecified)
-0.45 | C=CCn1nc(C)c(=O)[nH]c1=S
-0.19 | COc1ccc(N=C2NC(=O)C(CO)(CO)S2)cc1
-0.15 | CCOCCOC(=O)C1=C(C)NC(=O)CC1c1cccc(Cl)c1 (stereo unspecified)
0.3 | COc1cccc(C=Cc2nc3ccccc3c(=O)n2-c2cccc(Cl)c2C)c1OC
-0.41 | C#CCN1C(=O)C(O)(CC(=O)c2ccc(C(C)(C)C)cc2)c2ccccc21 (stereo unspecified)
-0.19 | Cc1ccc(NC(=O)Cn2cnc3sc(C(=O)Nc4ccc(Oc5ccccc5)cc4)c(C)c3c2=O)cc1Cl
-0.5 | COc1ccc(Nc2cc(C)c(C#N)c3nc4ccccc4n23)cc1
0.65 | CCOC(=O)C1CCCN(C(=O)c2cc(Nc3ccc(OC)cc3OC)nc3ccccc23)C1 (stereo unspecified)
-1 | CCCCCOC(=O)C1=C(C)NC(=O)NC1c1cccc(Br)c1 (stereo unspecified)
0.08 | Cc1ccccc1S(=O)(=O)Nc1cc2c3c(oc2c2ccccc12)CCCC3
-0.93 | CNC(=O)c1c[nH]c2ccc(S(=O)(=O)Nc3cccc(Cl)c3C)cc2c1=O
-0.02 | COC(=O)Cc1nc(N2CCN(c3ccc([N+](=O)[O-])cc3)CC2)c2c3c(sc2n1)CCCC3
2.8 | FC(F)Oc1ccc(C2C=C(c3ccccc3)Nc3nc4ccccc4n32)cc1 (stereo unspecified)
-1 | Cc1ccc(C)c(N/C(N)=N/c2nc(C)cc(C)n2)c1
-0.47 | CC1CCN(C(=O)Cn2c(=O)[nH]c3ccsc3c2=O)CC1
-0.43 | CN(C)C(=O)c1cc(-c2ccccc2)nc2ccccc12
0.22 | COc1cc2[nH]c(=S)n(CCc3ccc(S(N)(=O)=O)cc3)c(=O)c2cc1OC
0.17 | Cc1ccc(C(=O)COC(=O)c2ccc(NC(=O)c3ccc(Br)cc3)cc2)cc1[N+](=O)[O-]
-0.9 | COc1ccc(C2C(C(C)=O)=C(O)C(=O)N2Cc2ccccc2)cc1OC (stereo unspecified)
0.2 | Cc1ccc(-c2cc(C(F)(F)F)c3c(n2)sc2c(O)cc(=O)[nH]c23)cc1
2.5 | O=C1CC(N2CCN(c3ccc([N+](=O)[O-])cc3)CC2)C(=O)N1c1ccc(Br)cc1 (stereo unspecified)
-0.28 | COc1ccc(-c2cn(-c3ccc(OC)cc3)c(SCC(=O)Nc3ccccc3Cl)n2)cc1
0.11 | Cc1cccc(-n2cc(-c3ccc4c(c3)OCO4)[nH]c2=S)c1
-0.32 | Cn1c(=O)c2c(nc(Oc3ccc(Cl)cc3)n2Cc2ccccc2Br)n(C)c1=O
0.89 | CCOc1ccc(-c2cc(C(F)(F)F)c(C#N)c(SCC)n2)cc1
0.16 | CCN(CC)c1ncnc2sc(C(=O)Nc3ccc(C)cc3Br)c(C)c12
-1.1 | COC(=O)c1c(NC(=O)c2cc(Cl)ccc2OC)sc2c1CCCC2
0.49 | COc1cc(C(=O)Nc2ccc(S(N)(=O)=O)cc2)cc(OC)c1OC
1 | COc1cccc(NC(=O)N(CCN(C)C)C(C)c2cccnc2)c1 (stereo unspecified)
0.98 | COc1cc(C(=S)N2CCCC2)ccc1OCc1ccccc1F
1.7 | Cc1cc(N2CCN(C)CC2)nc2ccc(NC(=O)c3cccnc3Cl)cc12
0.2 | Cc1ccc(Oc2c(F)c(F)nc(N3CCCC3)c2F)cc1
0.51 | CCN1C(=O)CC(C)=Nc2ccccc21
0.63 | CCC(C)NC(=O)c1cc(=O)n(Cc2ccc(Cl)cc2)c2ccccc12 (stereo unspecified)
0.42 | CCN(CC)c1cc(C)c2cc(NC(=O)Cn3nc(C(F)(F)F)cc3C)ccc2n1
0.2 | Cc1cc2c(cc1C)NC(c1ccc([N+](=O)[O-])o1)C1=C(CC(C)(C)CC1=O)N2 (stereo unspecified)
-1.5 | O=C(c1ccc(F)cc1)N1CCC(C(=O)N2CCN(c3ccc(F)cc3)CC2)CC1
2.4 | COc1ccc(C2C(C(=O)OC3CCCC3)=C(C)NC3=C2C(=O)CCC3)cc1O (stereo unspecified)
0.66 | Cc1ccc(O)c(C2=Nc3ccccc3N=C(c3ccco3)C2)c1
-1.3 | NC(=O)c1cc2ccccc2oc1=NCc1ccccc1
-0.4 | N#Cc1c(N)nc2c(c1-c1cccc(O)c1)CCCCCC2
0.13 | Cc1cc(C)c(C#N)c(SCC(=O)NCCc2ccccc2)n1
0.17 | CCOC(=O)Cc1c(C)nc2cc(-c3ccccc3)[nH]n2c1=O
0.09 | O=C(CN1C(=O)c2cccc3cccc1c23)N1CCCCCC1

The listing continues:
Measles inh | Compound
-2.1 | NC(=O)C1CCN(C(=O)C2CCC(CNS(=O)(=O)c3ccccc3)CC2)CC1 (stereo unspecified)
0.54 | Cc1ccc(C(=O)Oc2cccc(C(=S)N3CCCCC3)c2)cc1
0.48 | CCN(CC)c1ccc([N+](=O)[O-])cc1C=Nc1ccc2c(c1)oc1ccccc12
-1.9 | COc1ccc(OC)c(NC(=O)c2c(NCc3ccc(C)o3)sc3c2CCC3)c1
-0.45 | Cc1ccccc1C1C(CN2CCOCC2)=C(c2ccccc2)Oc2ccccc21 (stereo unspecified)
0.23 | Cc1nc2ccc3nc(NC(=O)c4ccc(S(=O)(=O)N(C)C5CCCCC5)cc4)sc3c2s1
1.3 | Cc1ncc(CN2CCCCC2)c(N)n1
0.78 | Cc1ccc(OCCNC(=O)COc2ccc(C3CCCCC3)cc2)cc1
-0.68 | O=C1C2C(c3ccc([N+](=O)[O-])cc3)OC3(C(=O)c4ccccc4C3=O)C2C(=O)N1c1ccc(Cl)cc1 (stereo unspecified)
1.1 | CN(C)c1cc[n+](CC(=O)c2ccc(Br)cc2)cc1

Rewritten comma-delimited: part of the list above.
Compound,Measles inh
Cc1ccc(O)c(C2=Nc3ccccc3N=C(c3ccco3)C2)c1,0.66
NC(=O)c1cc2ccccc2oc1=NCc1ccccc1,-1.3
N#Cc1c(N)nc2c(c1-c1cccc(O)c1)CCCCCC2,-0.4
Cc1cc(C)c(C#N)c(SCC(=O)NCCc2ccccc2)n1,0.13
CCOC(=O)Cc1c(C)nc2cc(-c3ccccc3)[nH]n2c1=O,0.17
O=C(CN1C(=O)c2cccc3cccc1c23)N1CCCCCC1,0.09
NC(=O)C1CCN(C(=O)C2CCC(CNS(=O)(=O)c3ccccc3)CC2)CC1 (stereo unspecified),-2.1
Cc1ccc(C(=O)Oc2cccc(C(=S)N3CCCCC3)c2)cc1,0.54
CCN(CC)c1ccc([N+](=O)[O-])cc1C=Nc1ccc2c(c1)oc1ccccc12,0.48
COc1ccc(OC)c(NC(=O)c2c(NCc3ccc(C)o3)sc3c2CCC3)c1,-1.9
Cc1ccccc1C1C(CN2CCOCC2)=C(c2ccccc2)Oc2ccccc21 (stereo unspecified),-0.45
Cc1nc2ccc3nc(NC(=O)c4ccc(S(=O)(=O)N(C)C5CCCCC5)cc4)sc3c2s1,0.23
Cc1ncc(CN2CCCCC2)c(N)n1,1.3
Cc1ccc(OCCNC(=O)COc2ccc(C3CCCCC3)cc2)cc1,0.78
O=C1C2C(c3ccc([N+](=O)[O-])cc3)OC3(C(=O)c4ccccc4C3=O)C2C(=O)N1c1ccc(Cl)cc1 (stereo unspecified),-0.68
CN(C)c1cc[n+](CC(=O)c2ccc(Br)cc2)cc1,1.1

Following part
Measles inh | Compound
-0.25 | CN(C)CCOC(=O)c1sc2ccccc2c1Cl
-0.58 | COc1cccc(C2CC(c3cccs3)=NN2C(=O)CN2CCCCC2)c1OC (stereo unspecified)
-0.13 | COc1ccc(-c2cc3cccc(OC)c3oc2=O)cc1
1.8 | COc1ccccc1NC(=O)c1cc2c(=O)n(C)c3ccccc3c2s1
-0.15 | CN1c2ccccc2Oc2nnc(Cl)cc21
1.4 | CSc1nc(-c2cccs2)cc(C(F)(F)F)c1C#N
0.53 | CCC1CCCCN1C(=O)CSc1nnc(-c2ccccc2)o1 (stereo unspecified)
0.74 | Cc1ccc(-c2c(C#N)c(N)nc(SC3CC(=O)N(c4ccc(Br)cc4)C3=O)c2C#N)cc1 (stereo unspecified)
0.46 | CCC1=NN(C(=O)CCc2ccccc2)C(O)(C(F)(F)F)C1 (stereo unspecified)
1.3 | O=c1c2c(nc3c(-c4ccc(Cl)cc4)c[nH]n13)CCCC2
-0.12 | O=C(Nc1ccccc1Oc1ccc(Br)cc1)c1ccccc1
-0.32 | CC(C)(C)c1ccc(OCc2nnc3n2N=C(c2ccc(OC(F)F)cc2)CS3)cc1
-2.2 | c1ccc(C2CNCCc3ccccc32)cc1 (stereo unspecified)
-0.53 | CCOC(=O)c1cnc2c(C)c(Cl)ccc2c1Nc1cc(C)ccc1OC
-1.3 | CCN(c1cccc(C)c1)S(=O)(=O)c1ccc2[nH]cc(C(=O)NCc3ccc(F)cc3)c(=O)c2c1
0.29 | CCN(CC)c1nc(C)nc2sc(C(=O)Nc3ccc4c(c3)OCCO4)c(C)c12
-0.79 | CCCOc1ccccc1C1C(C(=O)OC)=C(C)NC2=C1C(=O)CCC2 (stereo unspecified)
1.3 | COc1ccc(CN2CC(C(=O)NCCN3CCN(c4ccccc4F)CC3)CC2=O)cc1 (stereo unspecified)
-0.48 | O=C(O)CNCc1ccccc1F
-0.33 | Cc1c(C(=O)Nc2cccc(C(F)(F)F)c2)oc2ccc(S(=O)(=O)N3CCCC3)cc12
-1.1 | Cc1nnc(NC(=O)CSc2cn(C)c3ccccc23)s1
-2.9 | CC12CCC(C(=O)N3CCCC3)(CC1=O)C2(C)C (stereo unspecified)
-0.81 | COc1ccc(C2=NN(CC(=O)NCCN(C)C)C(=O)CC2)cc1
1 | COc1cccc(NC(=O)CCN2CCN(CC=Cc3ccccc3)CC2)c1
-1.3 | COc1cccc(CNC(=O)c2cnn3c(C)c(Cc4ccccc4)c(C)nc23)c1
0.16 | CC1=CC(C)(C)NC(=S)N1c1ccc(C)cc1C
-0.18 | CCC(C)NC(=O)c1ccc2c(=O)n(CCCN3CCCC3=O)c(=S)[nH]c2c1 (stereo unspecified)
-0.96 | Cc1c(NC(=O)c2cc(-c3ccc(CC(C)C)cc3)nc3ccccc23)c(=O)n(-c2ccccc2)n1C
0.18 | Cc1ccc2nc(-c3ccncc3)c(Nc3ccccc3C)n2c1
-0.47 | O=C(OCCCN=C1NS(=O)(=O)c2ccccc21)c1ccc(F)cc1
-0.55 | O=C(O)CCc1ccc(-c2ccc(F)cc2)n1-c1cccc(C(F)(F)F)c1
-0.63 | COc1ccc(-n2nc(C(=O)NCC(=O)NC3CCCCC3)c3ccccc3c2=O)cc1OC
0.66 | COC(=O)c1ccc(-c2csc(NC(=O)c3ccc(S(=O)(=O)N4CC(C)CC(C)C4)cc3)n2)cc1 (stereo unspecified)
-1.4 | Cc1cc(Cl)ccc1NC(=O)c1ccc(N(C)S(=O)(=O)c2ccccc2)cc1
1.5 | CC1(C)CC(=O)c2sc(NS(=O)(=O)c3ccc(Br)cc3)nc2C1
1.5 | N#Cc1nc(COc2ccccc2Cl)oc1N1CCCC1
-0.71 | O=C1C2C(C(=O)N1c1cccc(C(F)(F)F)c1)C1C=CC2C12CC2 (stereo unspecified)
-0.31 | Cc1ccc(Nc2c(-c3ccc(C)o3)nc3cnccn23)cc1
-0.22 | N#Cc1cc(Nc2ccc(Cc3ccncc3)cc2)c([N+](=O)[O-])cc1C#N
2.2 | CCN(CC)C(=O)Cn1cnc2sc(C(=O)NC(C)C)c(C)c2c1=O
-0.58 | Nc1ccc(Oc2ccc3c(c2)C(=O)N(c2cccc(C(F)(F)F)c2)C3=O)cc1
0.58 | Cc1cccc(NC(c2cccc(C)n2)c2ccc3ccc(C)nc3c2O)n1 (stereo unspecified)
-0.7 | Fc1ccccc1Nc1c2c(nc3ccccc13)CCC2
-0.11 | CC(C)N1C(=O)CCC1C(=O)N1CCN(c2ccc(F)cc2)CC1 (stereo unspecified)
-0.58 | O=[N+]([O-])c1cccc2c1NC(c1ccc(Cl)cc1)C1CC=CC21 (stereo unspecified)
-1.1 | CCOC(=O)c1nn(-c2ccc(OC)cc2)c(=O)c2c(NC(=O)c3ccc4c(c3)OCO4)scc12
0.85 | Cc1ccc(C(=O)OCCOC(=O)c2ccc(C)cc2)cc1
-0.41 | O=S(=O)(c1ccc(F)cc1)N1CCc2[nH]c3ccccc3c2C1
-1.7 | O=C(CC1N=C2c3ccccc3N=C(SCc3cccc(F)c3)N2C1=O)NCCc1ccccc1 (stereo unspecified)
0.11 | COc1ccc(C2C3=C(CCCC3=O)N=C3c4ccccc4C(=O)C32)cc1 (stereo unspecified)

Carrying on.
Measles inh | Compound
0.46 | CCOc1ccccc1CNC(=O)c1oc2ccc(S(=O)(=O)N3CC(C)CC(C)C3)cc2c1C (stereo unspecified)
-2.1 | CC1(C)CC2(CC(C)(c3csc(Nc4ccccc4)n3)OC2=O)C(=O)O1 (stereo unspecified)
0.95 | O=C1CC(N2CCOCC2)C(=O)N1c1ccc(OC(F)(F)Cl)cc1 (stereo unspecified)
-1.1 | CCc1cccc(C)c1-n1nnnc1C(C)(C)N(C)C
-0.34 | CCCCN(CC)C(=O)Cn1ccc2ccccc2c1=O
-2.1 | Cc1ccc(C2=NN(CC(=O)N3CCC(Cc4ccccc4)CC3)C(=O)CC2)cc1
0.02 | CC(=O)N(C)c1ccc(NC(=O)COc2ccc(Cl)cc2)cc1
0.52 | Cc1cccc(NC(=O)CC2NCCNC2=O)c1 (stereo unspecified)
-0.57 | Cc1ccc(S(=O)(=O)Nc2ccc(Br)cc2C(=O)c2cccc(Cl)c2)cc1
-2.2 | COCCNC(=O)c1cn(C)c(=O)c2c1c1ccccc1n2C
0.11 | Cc1cc2ccccc2n1CCNC(=O)c1cccc(Cl)c1
-0.69 | CCC(=O)N1CCc2cc(S(=O)(=O)NC(C)C)ccc21

This is a subset, so the mix of outcomes need not match the whole.
